Arbovirus anti – arbovirus infection inhibition; arbovirus infection cell-based antiviral screen; inhibition, % at 10 µM; 0.37% of 200,000 active;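 active means inhibition from about 30%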;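 further: bluetongue infection of BSR cells; cell survival read as ATP light after 72 h; 0% = infected wells without compound and 100% = uninfected wells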
Mtb H37Rv – M. tuberculosis H37Rv growth inhibitors, H37Rv strain (AID 1626); M. tuberculosis H37Rv growth inhibition; higher % means a stronger effect; inhibition, % at 10 µM, or IC50 in µM where a hit was titrated; 0.95% of 220,000 active;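 active means confirmed in a dose series; inconclusive means inhibition above 80% but not taken into the dose series; inactive means below 80% or under 30% at every dose of the series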;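 further: bacteria incubated seven days before Alamar blue readout; 0% = bacteria only wells and 100% = bacteria with antibiotic wells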
YopH inh – blocks Yersinia enterocolitica YopH tyrosine phosphatase; fluorescence Ex485/Em525; inhibition, %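 (about 10 µM by stock and volumes)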; 0.16% of 140,000 active;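 active means inhibition of 50% or more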;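 further: controls were vehicle for no effect and minimum signal wells for full effect; inactives centre near -20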
Mtb betalactam – beta-lactam sensitization of Mtb H37Rv | M. tuberculosis H37Rv growth with meropenem, percent inhibition; hits of this screen are not shown here | inhibition, % at 25 µM | 0.27% of 330,000 active;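 active means about 74% or more and at least 40 points above the plate without the antibiotic, then above 30% in a dose series; inconclusive means first-round hits that could not be retested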;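 further: growth measured after seven days incubation then overnight dye step; 0% = bacteria only wells and 100% = bacteria with antibiotic; twin plates without the antibiotic show which effects depend on it; some results filed as inactive read as strong as hits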
RecA splice inh – Mtb RecA intein splicing inhibition | inhibition, %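 (about 9 µM by stock and volumes)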 | 0.75% of 290,000 active | AID 2221 | cell-free RecA intein splicing, fluorescence; in the data active means inhibition above about 30%; inconclusive means no clear call, values can overlap the other calls;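 further: 0% = vehicle wells and 100% = reference inhibitor control wells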
Target sequence (P9WHJ3 whole entry, looked up, canonical isoform): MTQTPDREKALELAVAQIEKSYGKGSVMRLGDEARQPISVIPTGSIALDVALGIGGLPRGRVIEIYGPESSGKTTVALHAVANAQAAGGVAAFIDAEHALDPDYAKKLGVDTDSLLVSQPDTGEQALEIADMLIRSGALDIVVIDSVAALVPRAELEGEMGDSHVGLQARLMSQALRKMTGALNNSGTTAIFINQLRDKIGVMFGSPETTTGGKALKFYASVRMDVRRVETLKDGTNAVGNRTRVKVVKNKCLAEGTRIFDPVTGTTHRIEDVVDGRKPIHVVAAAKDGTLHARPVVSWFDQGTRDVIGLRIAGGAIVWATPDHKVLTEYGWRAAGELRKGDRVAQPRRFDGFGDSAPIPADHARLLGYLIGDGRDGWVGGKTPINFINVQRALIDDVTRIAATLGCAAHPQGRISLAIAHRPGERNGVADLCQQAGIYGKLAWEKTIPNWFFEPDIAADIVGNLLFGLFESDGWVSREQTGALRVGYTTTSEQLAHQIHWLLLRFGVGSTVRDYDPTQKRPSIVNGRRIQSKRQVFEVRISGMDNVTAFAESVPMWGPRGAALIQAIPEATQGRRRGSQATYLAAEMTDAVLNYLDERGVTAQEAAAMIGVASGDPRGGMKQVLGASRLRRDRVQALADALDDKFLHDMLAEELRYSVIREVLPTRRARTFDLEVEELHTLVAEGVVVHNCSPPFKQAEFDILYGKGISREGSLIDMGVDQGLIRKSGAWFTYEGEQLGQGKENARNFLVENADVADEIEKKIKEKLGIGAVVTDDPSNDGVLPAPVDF
Arbovirus anti repeat – further read-out of Arbovirus anti, marked with its call; inhibition, %; measured here: 10K subset replicate screen; many hits read low in the repeat;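 first of two repeat runs on a subset; 0% = infected and 100% = uninfected wells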
* = called active by the depositor; ? = inconclusive; . = not tested or not shown.

SMILES	Arbovirus anti	Mtb H37Rv	YopH inh	Mtb betalactam	RecA splice inh	others
CN(C)c1ccc(N/C=C/C(=O)c2ccc(F)cc2)cc1	-24	8%	-35	35	-3.0
CN(C)c1cccc(NC(=O)C2(C)CC2(Cl)Cl)c1 (configuration not stated)	-15	-4%	-34	-2	-1.4
COC(=O)CSc1nc(C)cc(C)c1C#N	-3	-8%	.	0	-1.3
Clc1c(-c2ccccc2)nnn1-c1ccccc1	-2	6%	-46	4	1.4
CCn1c(SCC(=O)NNC(=O)c2ccc(C)cc2)nnc1C(C)C	.	.	.	0	2.0
Cc1noc(C)c1S(=O)(=O)Nc1ccc(C#N)cc1	.	.	.	-19	-2.0
O=C(O)C1CCC(CNS(=O)(=O)c2ccc(Br)cc2)CC1 (configuration not stated)	.	.	.	2	-1.5
CCc1ccc(NS(=O)(=O)c2cccc3nonc23)cc1	3	-2%	.	9	-1.6
CC(C)OP(=O)(c1ccc(N(C)C)cc1)C(O)c1ccc(C(C)C)cc1 (configuration not stated)	.	.	.	-9	1.1
O=C(NN1CCN(Cc2ccccc2Cl)CC1)c1ccc(Cl)cc1	-7	-4%	-18	1	2.7
CN1C(=O)c2ccccc2OC1(C)Cc1ccccc1 (configuration not stated)	-1	-2%	-7	-1	0.4
COc1cccc(NC2=NCCCS2)c1	.	.	.	-3	-1.4
O=C(CCC(=O)c1cccs1)NCc1ccc(F)cc1	0	-3%	-12	6	-3.2
O=C(COc1ccccc1[N+](=O)[O-])N1CCCc2ccccc21	.	.	.	9	-0.9
CC(Cc1ccccc1)C(=O)NCc1ccncc1 (configuration not stated)	6	-4%	-26	-14	1.6
COc1cccc(-c2ccc3nnc(SCC(=O)Nc4ccc(NC(C)=O)cc4)n3n2)c1	.	.	.	0	-1.1
COc1ccc(OCC(=O)Nc2cc(-c3nn(C)c(=O)c4ccccc34)ccc2N2CCOCC2)cc1	.	0%	.	0	3.2
C/C(=N\Nc1nc(N2CCCCCC2)nc(N2CCCCCC2)n1)c1ccccc1	21	-2%	.	-8	7.2
COC(=O)c1cccc(C(=O)N2CCCC(C(=O)c3cccc(OC(C)C)c3)C2)c1 (configuration not stated)	.	.	.	6	1.8
Cc1csc(NC(=O)C2=COCCO2)n1	.	.	.	-5	1.1
CC(NC(=O)CN1CCN(Cc2ccc(Cl)cc2)C1=O)c1ccc2c(c1)OCCO2 (configuration not stated)	8	-7%	-14	-3	1.2	Arbovirus anti repeat=5
O=C(NCc1cccc(C(F)(F)F)c1)C1CCC(=O)N(C2CCCCCC2)C1 (configuration not stated)	.	.	.	5	-4.2
O=C(O)/C=C\C(=O)NCc1cccnc1	6	-6%	.	4	1.4
Cc1c(C(=O)N2CCN(Cc3ccccc3)CC2)sc2ncnc(N3CCOCC3)c12	4	-2%	-34	-6	-1.3
CC(NS(=O)(=O)c1ccc(OCC(=O)NCc2ccncc2)cc1)c1ccccc1 (configuration not stated)	.	.	.	-6	-3.0
Additional records follow:
SMILES	Arbovirus anti	Mtb H37Rv	YopH inh	Mtb betalactam	RecA splice inh	others
Cc1c2cnn(CC(=O)Nc3cccc(C(F)(F)F)c3)c(=O)c2c(C)n1Cc1ccccc1F	-4	-5%	-30	1	0.1
O=C(CCn1c(=O)oc2ccccc21)NCc1ccc2c(c1)OCO2	-4	0%	-14	-1	1.8	Arbovirus anti repeat=-7
COc1cc(C(=O)N[C@H](C(=O)NC2CCCCCC2)C(C)C)cc(OC)c1OC	-2	-1%	-14	-1	-0.8
CCN(CC)S(=O)(=O)c1ccc(N2CCOCC2)c(NS(=O)(=O)c2ccc(C)cc2)c1	15	0%	-14	-2	-0.9
O=C(CN1CCOc2ccccc21)NCc1cccs1	0	-9%	-22	-5	-1.1
Cn1c(=O)n(C)c2cc([N+](=O)[O-])c(N3CCN(S(=O)(=O)c4ccccc4)CC3)cc21	-5	5%	-2	-7	2.6
COc1ccc(-c2cc(C(=O)NNC3=NCCC3)c3c(C)nn(-c4ccccc4)c3n2)cc1	-16	?	.	89	-1.5
Cc1cccc(N=Cc2[nH]c3ccc(Br)c(Cl)c3c2O)c1	-4	-4%	-19	-2	.
Cc1ccccc1-n1c(-c2ccc(Br)o2)n[nH]c1=S	.	.	.	-13	0.9
CCc1ccc2c(c1)/C(=N/N(C)C(=S)NC)C(=O)N2	-9	.	8	-1	2.0
Cc1ccc(C(=O)NNC(=O)c2cccnc2SCc2cccc([N+](=O)[O-])c2)cc1	-13	-7%	3	-1	-1.3
C/C(=N\NC(=O)c1[nH]c2c([N+](=O)[O-])cc(C)cc2c1-c1ccccc1)c1cccnc1	-17	-10%	-5	-14	0.2
Cc1ccc(NC(=O)CSCC(=O)Nc2ccccc2N2CCCC2)cc1	.	.	.	-16	-0.4
CCOC(=O)c1c(C)nc2c(c1-c1cc(OC)ccc1OC)C(=O)CC(C)(C)C2	.	2%	.	-3	0.7
COc1ccccc1N1CCN(CC(=O)Nc2cc(F)ccc2C)CC1	16	-1%	0	.	-0.7
CC(=O)Nc1ccc(NC(=O)/C=C/c2ccc(Cl)cc2)cc1	-10	9%	.	-9	-2.7
CC1(C)SCC(C(=O)O)NC1=O (configuration not stated)	1	3%	.	1	-0.2
Cc1ccc(S(=O)(=O)c2nc(-c3ccco3)oc2SCC(=O)NCC2CCCO2)cc1 (configuration not stated)	5	-8%	-11	-6	1.3	Arbovirus anti repeat=1
Cc1c(Cl)cnc(NC(=O)COC(=O)CCc2nc3ccccc3s2)c1Cl	-2	16%	-23	1	2.5
Cc1ccc(OCC(=O)N2CCN(C(=O)c3cccnc3)CC2)cc1	0	-4%	-12	-4	-0.2
C[C@@H]1C[C@H]2OC(=O)C3(CO3)[C@H]2[C@H](O)[C@]2(C)C(=O)C3OC3[C@@H]12 (some centres not stated)	.	2%	.	42	18
CCOc1cc(C(=O)Nc2ccc([N+](=O)[O-])cn2)cc(OCC)c1OCC	-5	-2%	-16	-1	-0.1
COc1ccc(N(CC(=O)Nc2cc(C)ccc2C)S(=O)(=O)c2c(C)noc2C)cc1	.	.	.	-6	-1.7
CCc1cc2c(-c3ccccc3)cc(=O)oc2c(CN2CCOCC2)c1O	-14	10%	-21	6	-18
NS(=O)(=O)c1ccc(CCNCc2cc(Br)ccc2OCc2ccccc2)cc1	-19	12%	-12	2	6.8

By substructure, the compounds so far containing a Cl atom (7)
SMILES	Arbovirus anti	Mtb H37Rv	YopH inh	Mtb betalactam	RecA splice inh	others
CN(C)c1cccc(NC(=O)C2(C)CC2(Cl)Cl)c1 (configuration not stated)	-15	-4%	-34	-2	-1.4
Clc1c(-c2ccccc2)nnn1-c1ccccc1	-2	6%	-46	4	1.4
O=C(NN1CCN(Cc2ccccc2Cl)CC1)c1ccc(Cl)cc1	-7	-4%	-18	1	2.7
CC(NC(=O)CN1CCN(Cc2ccc(Cl)cc2)C1=O)c1ccc2c(c1)OCCO2 (configuration not stated)	8	-7%	-14	-3	1.2	Arbovirus anti repeat=5
Cc1cccc(N=Cc2[nH]c3ccc(Br)c(Cl)c3c2O)c1	-4	-4%	-19	-2	.
CC(=O)Nc1ccc(NC(=O)/C=C/c2ccc(Cl)cc2)cc1	-10	9%	.	-9	-2.7
Cc1c(Cl)cnc(NC(=O)COC(=O)CCc2nc3ccccc3s2)c1Cl	-2	16%	-23	1	2.5

Continued.
SMILES	Arbovirus anti	Mtb H37Rv	YopH inh	Mtb betalactam	RecA splice inh	others
CCOc1cc(CNCC(C)C)c(Cl)cc1OCC(=O)Nc1ccccc1	-1	6%	.	-9	0.7
COc1cc(/C=N/NC(=O)C2CCN(CC(O)COCc3ccccc3)CC2)cc(OC)c1OC (configuration not stated)	10	0%	.	-1	-0.2
Cc1ccc(-n2c(SCC(=O)N/N=C/c3ccccc3OCC(=O)O)nc3ccccc3c2=O)cc1	.	0%	.	-2	1.9
Cc1ccc(NC(=O)c2cccnc2)cc1S(=O)(=O)N(C)C	0	-1%	.	-2	-0.3
Clc1ccc(CCNc2nc3ccccc3n3nnnc23)cc1	7	.	-30	4	0.0
COc1ccc(OC)c(N(CC(=O)NCC2CCCO2)S(=O)(=O)c2ccccc2)c1 (configuration not stated)	.	.	.	12	-2.7
Oc1ccccc1Cc1c(O)ccc2ccccc12	.	.	.	15	2.5
CCOc1ccc(NC(=O)CCN2CCN(C)CC2)cc1	.	.	.	4	1.5
CCOc1ccc(N2C(=O)CC(N3CCOCC3)C2=O)cc1 (configuration not stated)	1	2%	-22	1	-3.1
COc1cc2[nH]c(=O)c(C(=O)NCCCN3CCCCC3)c(O)c2cc1OC	-6	-1%	-40	-9	.
COc1ccc(NC(=O)c2ccc(C#N)cc2)cc1NS(=O)(=O)c1ccc(F)cc1	6	-5%	-25	0	-1.0
CC(CCc1ccccc1)NC(=O)c1ccc(-n2cncn2)c([N+](=O)[O-])c1 (configuration not stated)	.	.	.	1	-6.8
CCCNC(=O)C(Cc1ccccc1)NS(=O)(=O)c1ccc2c(c1)CCC(=O)N2 (configuration not stated)	0	-4%	-7	-4	0.9	Arbovirus anti repeat=5
CC1(C)CC(=O)c2cn3nc(C(F)(F)F)nc3nc2C1	-3	-5%	-17	3	-1.8
O=C(CCN1C(=O)/C(=C/c2ccccc2Cl)SC1=S)NNC(=O)c1ccccc1O	.	.	.	5	0.4
CCCCCC(=O)Nc1ncc2c(n1)CC(c1cccs1)CC2=O (configuration not stated)	.	25%	.	42	-1.4
CN1CCC(N(C)C(=S)NC(=O)c2cc(-c3cccc(Br)c3)nc3ccccc23)CC1	2	63%	.	58	7.1
COc1ccc(OCC(=O)N/N=C(\C)CC(=O)Nc2ccc(OC)cc2[N+](=O)[O-])cc1	20	15%	.	1	-1.8
CCOc1ccc(C(=O)n2cnnc2N)cc1	.	-3%	.	-4	5.5
Cc1cc(C)cc(N(C(=O)Cn2nnc3ccccc32)C(C(=O)NCc2ccco2)c2ccncc2)c1 (configuration not stated)	5	0%	2	0	-1.2
OC(COc1cc(Cl)c(Cl)cc1Cl)CN1CCN(c2ncccn2)CC1 (configuration not stated)	4	-3%	-18	17	-1.8
O=C(Nc1ccnn1C1CCN(C(=O)CCc2ccc(F)cc2)CC1)C1CCOC1 (configuration not stated)	.	.	.	?	6.7
COc1ccccc1C(=O)NCCc1nc2ccccc2n1C	-3	2%	.	-2	-1.9	Arbovirus anti repeat=1
Cc1ccc(N2C(=O)c3ccccc3C2C(=O)c2ccc(O)cc2O)cc1 (configuration not stated)	12	13%	-9	1	-2.1
Cc1ccc(C)c(S(=O)(=O)N2CCCOC2CNC(=O)C(=O)NCc2ccncc2)c1 (configuration not stated)	11	4%	.	-4	-0.3
(further entries)
SMILES	Arbovirus anti	Mtb H37Rv	YopH inh	Mtb betalactam	RecA splice inh	others
CCOC(=O)CC1C(=O)NCCN1S(=O)(=O)c1ccccc1 (configuration not stated)	3	-5%	.	3	-1.4
COc1ccc(C(=O)NCCS(=O)(=O)N2CCc3ccccc3C2)cc1OC	.	.	.	1	2.0
COc1cccc(CCNC(=O)c2cc(COc3c(F)cccc3F)on2)c1	.	.	.	12	5.4
O=C(N/N=C\c1ccc(F)cc1)c1ccc(F)cc1	6	-6%	.	4	-0.3
NS(=O)(=O)c1ccc(CCNC(=O)C2CCCCC2)cc1	-4	1%	8	0	-1.0
C/C(=N\NC(=O)c1nnn(-c2nonc2N)c1-c1ccc2c(c1)OCO2)c1ccccc1	.	.	.	10	0.6
O=C(Nc1ccccc1C(=O)O)c1cc(S(=O)(=O)Nc2ccccc2)ccc1Cl	.	.	.	7	1.2
COc1ccc(/C=N\NC(=O)c2ccc(F)cc2)cc1COc1ccccc1C(N)=O	.	.	.	-14	1.1
COc1ccccc1CNC(=O)[C@H](C)NC(=O)C1CCN(C(=O)[C@@H](N)Cc2ccccc2)CC1	.	.	.	3	-2.4
CCOC(=O)c1cnc2cc(-c3ccc(C)cc3)nn2c1-c1ccccc1	8	-3%	11	5	-7.1
N/C(COc1ccccc1)=N\NC(=O)c1cccnc1Oc1ccccc1	-5	-8%	-16	-8	-6.4
Cc1cc(C(F)(F)F)nn1Cc1n[nH]c(=S)n1Cc1ccccc1	7	-3%	3	0	-1.5
O=C(Nc1ccccc1)OCCOc1ccccc1Br	.	.	.	-5	1.9
CCN(C(=O)COC(=O)c1c(-c2ccccc2)noc1C)C1CCS(=O)(=O)C1 (configuration not stated)	2	-3%	-34	-6	0.6
O=C(NCc1nnc2c(C(F)(F)F)cc(Cl)cn12)c1ccc2c(c1)OCO2	.	.	.	0	-2.6
CC(Sc1nc2ccccc2s1)C(=O)Nc1nnc(C(C)C)s1 (configuration not stated)	10	11%	-41	1	5.8
O=C(CSc1nn(-c2ccccc2)c(=S)s1)NC1CCS(=O)(=O)C1 (configuration not stated)	3	1%	-29	-7	-0.7

Retrieved one by one from above:
SMILES	Arbovirus anti	Mtb H37Rv	YopH inh	Mtb betalactam	RecA splice inh	others
CCOC(=O)c1cnc2cc(-c3ccc(C)cc3)nn2c1-c1ccccc1	8	-3%	11	5	-7.1
C/C(=N\NC(=O)c1nnn(-c2nonc2N)c1-c1ccc2c(c1)OCO2)c1ccccc1	.	.	.	10	0.6

Compound activity as filed in PubChem BioAssay.

A portion of the library (hit frequency here may not be typical).
